# Vaccinia Venus = vaccinia inhibition (Venus reporter); Potency, µM (doses to about 36.5 µM), inactives show top-dose activity change, negative = inhibition, hits mostly inhibitors; 330,000 tested, 0.46% active; Vaccinia virus Venus reporter expression, fluorescence; active means well fitted inhibition curve with a large enough effect; inconclusive means small, poorly fitted or top-dose-only effect; inactive means no such curve, though single readings can be large or run the other way; tested in A549 cells; also: nearly all actives have a fitted effect of over 30% in size; inactives centre near -10
# VACV mCherry inh = vaccinia inhibition (mCherry reporter) | 310,000 tested, 0.63% active | Potency, µM (highest dose often 36.5 µM), for the others: at the top dose activity change, negative = inhibition, actives largely listed as inhibitors | AID 720579 | Vaccinia virus mCherry reporter infection, fluorescence; about a quarter of the inactives have no number; active = well fitted inhibition curve with a large enough effect; inconclusive = small, poorly fitted or top-dose-only effect; inactive = no such curve, though single readings can be large or run the other way; tested in A549 cells; also: nearly all actives have a fitted effect of over 35% in size; inactives centre near -10
# * = called active by the depositor; i = inactive; ? = inconclusive; . = no result given; & = joins results of further samples; [ ] = dose if it differs, or a comment. % is scaled to controls: 0 for no effect and ±100 for the full control effect; potency is read from the fitted curve at half-maximal effect. The order is random; 0.87% or so of the library scored in one or more.
SMILES	Vaccinia Venus	VACV mCherry inh
Cc1cc(-c2nc3ncccc3o2)ccc1NC(=O)COc1cc(C)c(Cl)c(C)c1	3%	13%
Cn1c(CSCC(=O)Nc2ccccc2)nnc1SCc1ccccc1	-11%	i
COc1ccc(OC)c(NC(=O)Cn2cnc3ccc(S(=O)(=O)N4CCC(C)CC4)cc3c2=O)c1	-15%	-15%
O=C(NCCS(=O)(=O)c1ccc(Br)cc1)c1c(F)cccc1F	-19%	-10%
CCN(CC)c1ccc(NC(=O)COc2ccccc2C#N)cc1S(=O)(=O)Nc1ccc(OC)cc1	-14%	i
O=C(/C=C/c1ccccc1O)c1ccccc1	-4%	i
Cc1ccc(CSc2nnc(Cn3c(=O)sc4ccccc43)n2C)cc1	-3%	-6%
COc1ccccc1-c1cnc(C(O)c2c(C)cccc2C)[nH]1 (stereo not given)	3%	39%[activator]
COc1ccc(NC(=O)c2cccc(N3CCCS3(=O)=O)c2)cc1	2%	-7%
CCN(CC)CCNC(C(=O)Nc1cccc(C(C)=O)c1)c1ccccc1 (stereo not given)	-11%	-9%
COc1ccc(CCNC(=O)CSc2nc3nc(C)c(Cc4ccc(C)cc4)c(C)n3n2)cc1OC	-19%	-24%
CC(C)C(NC(=O)c1ccccc1)C(=O)NC1=NCCS1 (stereo not given)	-6%	-14%
COc1ccccc1CNS(=O)(=O)c1c(C(=O)N2CCC(C)CC2)c(C)n(C)c1C	-11%	i
Cc1ccc(CNS(=O)(=O)c2cc3c4c(c2)CCN4C(=O)CC3)cc1	-14%	-20%
CC(C)CNC(=S)Nc1ccc(S(N)(=O)=O)cc1	-13%	i
CCOc1ccc(N(CC(=O)NC2CCCC2)C(=O)CSc2nnc(COc3ccccc3)o2)cc1	-15%	-8%
Cc1cc(=O)[nH]c(SCC(=O)Nc2ccc(Br)cc2)n1	-6%	i
Cc1ccc(CNC(=O)COC(=O)CCOc2ccc(C)cc2)cc1	-4%	-14%
CCOC(=O)c1sc(NC(=O)CCN2CCC(C)CC2)c(C(=O)OCC)c1C	-14%	-16%
CN(C(=O)COC(=O)C(Cc1ccccc1)NC(=O)c1ccccc1)c1ccccc1 (stereo not given)	-7%	-9%
CC(C)NC(=O)/C(C#N)=C\c1ccc(N(C)C)c(Br)c1	2%	-7%
CCOC(=O)C1=C(C)N(C)C(=O)NC1c1cccc(O)c1 (stereo not given)	-18%	.
CC12CN3CC(C)(CN(C1)C3c1ccncc1)C2=O (stereo not given)	-10%	.
CN(C)CCNC(=O)c1cccc2nc3cccc(F)c3nc12	3.2µM*	?
Cc1ccc[n+](CC(=O)Nc2cc(C(F)(F)F)ccc2N2CCOCC2)c1	-7%	i
COc1cccc(CN2CCN(Cc3ccc(OC)c(OC)c3)CC2CCO)c1 (stereo not given)	-5%	-5%
CN(c1ccccc1)S(=O)(=O)c1ccc(Cl)c(C(=O)Nc2nc3ccccc3[nH]2)c1	?	-7%
COc1cc(C)c(C(C)C)cc1S(=O)(=O)n1cnc(C)c1	?	-26%
CN(C)CCCN(C(=O)/C=C/c1cccs1)c1nc2c(F)cccc2s1	10µM*	10µM*
COc1ccc(CC(=O)NCc2cccs2)cc1OC	-3%	-12%
Cc1ccc(CCNC(=O)CC(C)CC2=NS(=O)(=O)c3ccccc3N2)cc1 (stereo not given)	?	?
Nc1cc(=O)[nH]c(SCC(=O)Nc2ccc(S(=O)(=O)N3CCCC3)cc2)n1	-1%	i
COc1ccc2ccccc2c1/C=N/NC(=O)c1ccccc1F	-10%	-19%
Nc1ccccc1C(=O)NC1CCCCNC1=O (stereo not given)	-4%	-10%
Cn1c(C(=O)NCCc2c[nH]c3ccccc23)cc2sccc21	?	?
COc1ccc(Br)cc1CNC(=O)CCNC(=O)Cn1ccc2ccccc2c1=O	-6%	-5%
O=C(c1cnc2n(c1=O)CCS2)N(C1CCCCC1)C1CCCCC1	5%	i
CCCCN1C(=O)C(CC(=O)NC2CCCCC2)CC(C(=O)N(C)C)=C1C (stereo not given)	2%	-17%
COc1ccc2[nH]cc(CCN)c2c1	-12%&-2%&-12%&-9%	-6%&-14%&-18%
CC(=O)N1CCC2(CC1)C/C(=N\NC(=S)Nc1ccccc1F)c1cc(O)ccc1O2	-16%	?
Cc1ccc(NC(=O)Cc2cccs2)cc1Cl	-4%	-19%
Cc1ccc(NC(=O)c2ccc(NC(=O)CCS(=O)(=O)c3cccs3)cc2)cc1F	-3%	-8%
CN(c1ccccc1)S(=O)(=O)c1cccc(NC(=O)CC(C)(C)C)c1	-11%	-18%
COc1ccc2c(c1)C(=O)C(=O)N2	-2%	-11%
CCN(CC)c1ccc(NC(=O)C2CC3CCC2C3)cc1 (stereo not given)	-15%	.
Cc1ccc(N2CCn3c2nc2c3c(=O)n(CCCc3ccccc3)c(=O)n2C)cc1	-8%	-19%
CCC(=Nc1ccccc1)C1=C(O)CCCC1=O	-11%	-9%
CS(=O)(=O)Nc1ccccc1C(=O)Nc1cc(Cl)cc(Cl)c1	11µM*	7.9µM*
CC(=O)c1sc2nc(SCC(=O)N3CCCCC3)[nH]c(=O)c2c1C	-14%	.
COc1ccc(-c2c(C#Cc3ccc(N(C)C)cc3)c3ccccc3n2C)cc1	?	-20%
N#Cc1sc(=O)[nH]c1Cl	-4%	i
Cc1nonc1CN(C)C(=O)CC1C(=O)NCCN1Cc1ccc(F)c(F)c1 (stereo not given)	-3%	0%
CC(OC(=O)CCN1C(=O)C2CC=CCC2C1=O)C(=O)Nc1ccc(F)cc1 (stereo not given)	-11%	i
Cc1cccc(CC(=O)NC2CC(=O)N(c3cccc(F)c3)C2)c1 (stereo not given)	-8%	-3%
Nc1c(C(=O)c2ccc(Cl)cc2)sc2nc3c(cc12)CCC3	-11%	-14%
CC(NC(=O)COc1ccc(S(=O)(=O)N2CCCC2)cc1)c1ccccc1 (stereo not given)	-5%	-18%
Nc1ncnc2c1ccn2[C@H]1CN(Cc2ccc3c(c2)OCO3)C[C@@H](CO)O1	-3%	-2%
O=C(NCC(=O)N(c1ccccc1)C(C(=O)NCC1CCCO1)c1ccccc1)c1ccco1 (stereo not given)	-4%	-13%
CCN1CCN(CC(=O)N2c3ccccc3Sc3ccccc32)CC1	-21%	?
CCOC(=O)C1(C)CCCN1C(=O)c1ccc(C)cc1 (stereo not given)	-2%	i

# Carrying on.
# Results follow in this order: Vaccinia Venus | VACV mCherry inh
C[C@@H]1CN([C@@H](C)CO)C(=O)CCCn2nncc2CO[C@H]1CN(C)S(=O)(=O)c1ccc(-c2ccccc2)cc1
 : -15% | 4%
O=C1CC(c2ccco2)Cc2nc(N3CCc4ccccc4C3)ncc21 (stereo not given)
 : 4% | -6%
COc1ccc(N2CCN(CC(O)COc3ccc(C(C)C)c(C)c3)CC2)cc1 (stereo not given)
 : -1% | i
Cc1nn(Cc2ccccc2)c(C)c1NC(=O)c1cc(-c2ccco2)on1
 : -9% | i
COc1ccc(CNc2nnnn2C)c(OC)c1
 : -5% | -11%
CCOc1ccc(N2CC(C)Cn3c2nc2c3c(=O)n(Cc3c(F)cccc3Cl)c(=O)n2C)cc1 (stereo not given)
 : -16% | i
Cc1ccc(C(=O)N(Cc2ccc3c(c2)OCO3)Cc2nc3ccccc3c(=O)[nH]2)cc1
 : -11% | -25%
CSCC[C@H](NC(=O)c1ccc(Cl)c(S(=O)(=O)N2CCCC2)c1)c1nc2ccccc2[nH]1
 : -19% | -18%
Cc1ccc(Cn2cc(CN3CC(N4CCCCC4)CS3(=O)=O)nn2)cc1 (stereo not given)
 : 4% | -3%
COc1cccc(CN(C(=O)Cc2c[nH]c3ccccc23)C(C(=O)NC2CCCCC2)c2ccc(C)o2)c1 (stereo not given)
 : ? | ?
Cc1nc(SCC(=O)N2c3ccccc3Sc3ccccc32)n[nH]1
 : -25% | .
COc1cc(C(=O)O/N=C(\N)Cc2ccc([N+](=O)[O-])cc2)cc(OC)c1OC
 : ? | ?
CCOC(=O)c1ccccc1NC(=O)c1nc2nccc(C)n2n1
 : -7% | -1%
CCCCCCNC(=O)CCCCCNS(=O)(=O)c1ccc(Br)cc1
 : -11% | -13%
CCN(C(=O)CSc1nc2ccccc2n1CCc1ccccc1)C1CCS(=O)(=O)C1 (stereo not given)
 : ? | .
O=C(CCC(=O)N1CCOc2ccc(Cl)cc21)N1CCC2(CC1)OCCO2
 : -8% | -1%
NC(=O)/C(=C/c1ccco1)NC(=O)c1ccc(Br)o1
 : 9% | -5%
O=C(Cn1ccc2ccccc2c1=O)NCC(=O)N1CCCCC1
 : -1% | i
Cc1nc(-c2ccc(Cl)cc2)sc1C(=O)O
 : 5% | -1%
CC(C)c1csc(CN2CCN(Cc3ccc(F)cc3)C(CCO)C2)n1 (stereo not given)
 : -9% | -19%
CN1CCC(NC(=O)NC2CCCCC2)CC1
 : -9% | i
CC(C)(C)NC(=O)c1nc2ccccc2s1
 : 6% | .
O=C(O)/C=C/c1cccc(NC(=O)c2ccc(Cl)cc2)c1
 : -7% | -14%
CCN(C(=O)COC(=O)CNC(=O)c1cccc(C)c1)c1c(N)n(Cc2ccccc2)c(=O)[nH]c1=O
 : -17% | -23%
Cc1cc(C)nc(SCC(=O)c2ccc(Cl)cc2)n1
 : -3% | -16%
CC(=O)Nc1ccc(CN(C)c2c(C)nc3ccc(C(=O)N(C)Cc4ccccc4)cn23)cc1
 : 9% | 13%
Cc1ccc(C)c(CN2C(=O)c3ccccc3S(=O)(=O)c3ccc(C(=O)NCCCN4CCCC(C)C4)cc32)c1 (stereo not given)
 : ? | -29%
CC(C)n1nnnc1C1c2ccccc2C(=O)N1C1CC1 (stereo not given)
 : -3% | 23%
Cc1sc2nc3n(c(=O)c2c1C)CCCCC3
 : -29% | .
CCOC(=O)CCc1c(C)c2ccc(OCc3cc([N+](=O)[O-])ccc3OC)cc2oc1=O
 : -1% | -12%

# Entries above that have an aryl thioether with sulfur outside any ring (10):
# Results follow in this order: Vaccinia Venus | VACV mCherry inh
Cn1c(CSCC(=O)Nc2ccccc2)nnc1SCc1ccccc1
 : -11% | i
Cc1ccc(CSc2nnc(Cn3c(=O)sc4ccccc43)n2C)cc1
 : -3% | -6%
COc1ccc(CCNC(=O)CSc2nc3nc(C)c(Cc4ccc(C)cc4)c(C)n3n2)cc1OC
 : -19% | -24%
CCOc1ccc(N(CC(=O)NC2CCCC2)C(=O)CSc2nnc(COc3ccccc3)o2)cc1
 : -15% | -8%
Cc1cc(=O)[nH]c(SCC(=O)Nc2ccc(Br)cc2)n1
 : -6% | i
Nc1cc(=O)[nH]c(SCC(=O)Nc2ccc(S(=O)(=O)N3CCCC3)cc2)n1
 : -1% | i
CC(=O)c1sc2nc(SCC(=O)N3CCCCC3)[nH]c(=O)c2c1C
 : -14% | .
Cc1nc(SCC(=O)N2c3ccccc3Sc3ccccc32)n[nH]1
 : -25% | .
CCN(C(=O)CSc1nc2ccccc2n1CCc1ccccc1)C1CCS(=O)(=O)C1 (stereo not given)
 : ? | .
Cc1cc(C)nc(SCC(=O)c2ccc(Cl)cc2)n1
 : -3% | -16%

# (listing goes on)
# Results follow in this order: Vaccinia Venus | VACV mCherry inh
O=C(CN1CCC2(CC1)OCCO2)c1ccc2cc[nH]c2c1
 : -4% | i
O=C1C2C3C=CC(CC3)C2C(=O)N1c1nccs1 (stereo not given)
 : 1% | -8%
CC(C)(C)NC(=O)C(c1ccncc1)n1c(-c2ccc(C(F)(F)F)cc2)nc2ccccc21 (stereo not given)
 : -13% | 11%
C=CCSc1nc2ccccc2n1S(=O)(=O)c1ccc(C)cc1
 : 6% | .
C[C@H](CO)N1C[C@H](C)[C@@H](CN(C)C(=O)Nc2ccccc2)Oc2ccc(NC(=O)NC3CCCCC3)cc2C1=O
 : 0% | i
CC(C)[C@H](NS(=O)(=O)c1cccc(C(F)(F)F)c1)C(=O)OCC(=O)NC(=O)NCc1ccco1
 : -11% | -15%
Cc1cc(C)cc(N2CN=C3SCC(=O)N3C2)c1
 : -4% | -14%
CC(C)c1c(C(=O)N/N=C/C2CC=CCC2)nnn1-c1nonc1N (stereo not given)
 : -8% | ?
O=S(=O)(Cc1cccc(C(F)(F)F)c1)c1ncn[nH]1
 : -6% | i
CCOC(=O)c1c(C)cc(C)n2c1nc1ccccc12
 : -22% | -21%
Cc1cc(C(=O)N2CCc3ccccc32)c2cc(F)ccc2n1
 : -3% | .
COc1cccc(/C=N\Nc2nncc(-c3ccccc3)n2)c1
 : -11% | -21%
CCOC(=O)/C=C1\SCC(=O)N1CC(=O)Nc1ccc(OC)c(OC)c1
 : 8% | -2%
O=C(CSc1nc2ccc(Cl)cc2[nH]1)NCc1ccco1
 : -11% | -12%
Cc1occc1-c1nnc(SCC(=O)c2ccccc2)n1CC1CCCO1 (stereo not given)
 : -1% | -12%
Cc1ccc(/C=N/n2c(-c3ccc(Cl)cc3)n[nH]c2=S)s1
 : 2% | i
COc1ccc(NC(=O)N(C)C[C@H]2Oc3ccc(NC(=O)C4CC4)cc3CC(=O)N([C@@H](C)CO)C[C@@H]2C)cc1
 : -3% | -1%
COc1ccc(-c2noc(C3CCCN(S(=O)(=O)c4ccc(C)c(Cl)c4)C3)n2)cc1OC (stereo not given)
 : -1% | -10%
COc1ccc(N(C)S(=O)(=O)c2cccc(C(=O)N(C)Cc3ccc(C)o3)c2)cc1
 : -6% | -3%
CC(=O)N1CCN(c2ccc(NC(=O)c3ccc([N+](=O)[O-])cc3)cc2)CC1
 : -7% | -8%
COc1cc2c(cc1OC)C(=O)N1[C@H]3c4cc(Cl)ccc4OC[C@@H]3[C@H](c3ccccc3)[C@]1(C)C(=O)N2
 : ? | ?
O=C(CSc1ncn[nH]1)Nc1c(Br)cc([N+](=O)[O-])cc1Br
 : -4% | -9%
O=C1CN(CN2CCCCC2)C(=O)CN1CN1CCCCC1
 : -5% | i
